Screening results: PubChem BioAssay, National Center for Advancing Translational Sciences (NCATS)
gsp ag: agonists of gsp mutant (McCune-Albright syndrome) | gsp mutant cells, cAMP HTRF, 30 min; control for the full effect not named in the record | Potency, µM (top dose mostly 76.9 µM), inactives show at the highest dose activation (cAMP increase), most hits filed as activators | hit rate 0.13% among 340,000; active = well fitted activation curve with a large enough effect; inconclusive = small, poorly fitted or top-dose-only effect, or another doubt; inactive = no such curve, though single readings can be large or run the other way; cell line not stated here;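 note: phosphodiesterase inhibitor Ro 20-1724 added with compounds to block cAMP breakdown; potency is the fitted concentration of half-maximal effect; nearly all actives have a fitted effect of over 60% in size; about a fifth of the inactives were tested at one dose only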
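Cells stably selected in G418 were plated at 2000/well, grown 16-24 hr, then given compounds in DMSO with the PDE inhibitor […] (300 uM solution added) for 30 min at 37C; cAMP was read by HTRF.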
gsp antag: gsp mutant antagonism; gsp-mutant cells, cAMP HTRF, 30 min; control for the full effect not named in the record; hit rate 0.4% among 340,000; AID 624288; Potency, µM (series often up to 76.9 µM), without a hit: at the highest dose activity change, negative = inhibition, hits mostly inhibitors; active = falling curve of any shape with a large fitted effect; inconclusive = falling curve, mostly with a smaller effect; inactive = flat or rising curve; cell line not stated here;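 note: intracellular cAMP measured with PDE inhibitor Ro 20-1724 present during compound exposure; potency is the fitted concentration of half-maximal effect; % is set by controls: 0 for no effect and ±100 for the full control effect; nearly all actives have a fitted effect of over 65% in size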
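Measurement of cellular cAMP by homogeneous time-resolved fluorescence following a 30 min compound exposure at 37C. The PDE inhibitor […] was present throughout; the assay buffer was DPBS with 0.05% BSA and 0.005% Tween 20.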
CtBP-E1A blk: inhibitors of CtBP/E1A interaction. AlphaScreen GST-E1A/His-CtBP binding, 1536-well; active compounds read low; control for the full effect not named in the record. activity change, % (concentration not given with the values). hit rate 0.49% among 340,000. AID 651724; in the data active means activity change below about -65%; inconclusive means about -30% to -65%; inactive means above about -30%; note: % is set by controls: 0 for no effect and ±100 for the full control effect
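In 5 uL wells, 23 nL compound meets equimolar GST-E1A and His-CtBP (5X stock 125 nM each) for 2 h, 37 °C. Beads (5X, 50 ug/mL) then 1 h, 37 °C, dark.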
D2 ag: agonists of human D2 dopamine receptor (beta-arrestin) | P14416 | DiscoveRx PathHunter D2 beta-arrestin, luminescence, 90 min; 100% = 57 uM dopamine signal | activation, % (test concentration not listed) | hit rate 0.084% among 360,000 | AID 624465; in the data active = activation above about 40%; inconclusive = about 15% to 40%; inactive = below about 15%; note: compound concentration not given in the record; the text of the record calls up to 30% inactive
Target sequence (P14416 whole entry, looked up): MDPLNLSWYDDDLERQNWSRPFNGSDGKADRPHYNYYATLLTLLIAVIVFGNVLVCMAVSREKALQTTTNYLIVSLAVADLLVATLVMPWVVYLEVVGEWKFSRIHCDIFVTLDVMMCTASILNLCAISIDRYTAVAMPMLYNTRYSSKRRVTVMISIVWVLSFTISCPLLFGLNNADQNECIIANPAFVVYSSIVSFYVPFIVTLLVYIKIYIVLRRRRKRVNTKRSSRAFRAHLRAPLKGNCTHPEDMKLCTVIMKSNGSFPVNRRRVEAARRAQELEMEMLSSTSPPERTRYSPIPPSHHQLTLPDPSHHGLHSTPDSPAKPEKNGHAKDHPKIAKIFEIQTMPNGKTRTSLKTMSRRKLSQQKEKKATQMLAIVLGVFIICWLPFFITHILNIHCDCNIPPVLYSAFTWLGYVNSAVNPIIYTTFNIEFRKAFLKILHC
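Agonist mode: compounds alone added to overnight-plated D2 PathHunter cells for 90 min at 37 C, with 57 uM final dopamine (EC100) defining full response. Beta-arrestin recruitment detected by chemiluminescent reagent, read after 1 h at ambient temperature.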
D2 PAM: potentiates the human D2 dopamine receptor allosterically; hit rate 0.23% among 360,000; P14416; DiscoveRx D2 beta-arrestin cells, luminescence, 90 min; 100% = 57 uM dopamine signal; potentiation, % (concentration not given with the values); active = potentiation of 50% or more; inconclusive = 30% to 50%; inactive = 30% or less;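 note: compound concentration not given in the record; tested on top of an EC20 dose of dopamine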
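D2 cells co-treated with compound plus 50 nM dopamine (EC20) for 90 min at 37 deg C to detect potentiation. Beta-arrestin recruitment was read as enzyme-fragment luminescence after 1 h at ambient temperature. Full response was set by 57 uM dopamine.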
Six1-Eya2 inh: inhibitors of human Six1/Eya2 interaction; Q15475+O00167; AlphaScreen GST-Six1/His-Eya2 binding, biochemical; active compounds read low; control for the full effect not named in the record; activity change, % (test concentration not listed); hit rate 0.56% among 360,000; in the data active = activity change below about -65%; inconclusive = about -30% to -65%; inactive = above about -30%; note: % is set by controls: 0 for no effect and ±100 for the full control effect
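AlphaScreen with GST-Six1 and His-Eya2 (5X mix: 250 nM and 500 nM), glutathione donor and nickel acceptor beads; buffer 50 mM Tris pH 8.0, 300 mM NaCl, 1 mM TCEP; 1 h at 37 C in the dark.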
An asterisk follows results filed as active; [ ] = dose if it differs, or a comment.

For CC(=O)N/C(=C/c1cccnc1)C(=O)Nc1ccc(Cl)cc1 the results were gsp ag -7%, gsp antag 2%, CtBP-E1A blk -18, D2 ag -3.5, D2 PAM -17 and Six1-Eya2 inh 8.
Cn1cccc1/C=N/N1CCN(Cc2cccc3ccccc23)CC1 was read as gsp ag 14%[15.4 µM], gsp antag -19%, CtBP-E1A blk -26, D2 ag 0.8, D2 PAM -35 and Six1-Eya2 inh inconclusive.
Screening CC(=O)N(C(C)=O)c1nc(-c2ccccc2)cn1/N=C/c1ccccc1 returned gsp ag -3%[15.4 µM], gsp antag -35%, CtBP-E1A blk -6, D2 ag -1.8, D2 PAM 1 and Six1-Eya2 inh 1.
Screening O=C1N=c2ccccc2=C1c1sc(Nc2ccc(O)cc2)nc1O returned gsp ag -6%[15.4 µM], gsp antag -6%, CtBP-E1A blk -11, D2 ag -3.3, D2 PAM -12 and Six1-Eya2 inh -22.
OC[C@@H]1CN(Cc2ccco2)C[C@H](n2cnc3c(NC4CCC4)ncnc32)O1 was read as CtBP-E1A blk 3, D2 ag 2.2, D2 PAM -2 and Six1-Eya2 inh 1.
Screening CN(Cc1ccccc1)C(=O)COC(=O)c1ccc(Br)c(S(=O)(=O)N2CCOCC2)c1 returned gsp ag 1%, gsp antag inconclusive, CtBP-E1A blk 1, D2 ag 3.7, D2 PAM 1 and Six1-Eya2 inh -2.
For O=C(CSc1nncn1-c1ccccc1)Nc1cc(Cl)cc(Cl)c1 the results were gsp ag inconclusive, gsp antag -4%, CtBP-E1A blk 2, D2 ag -0.7, D2 PAM -4 and Six1-Eya2 inh 2.
CC1CCC(N(C)C(=O)CN2C(=O)NC(c3ccccc3)(c3ccccc3)C2=O)CC1 (stereo not drawn) was read as gsp ag -82%[inhibitor], CtBP-E1A blk -8, D2 ag -3.0, D2 PAM -21 and Six1-Eya2 inh 0.
For CC1Cc2ccccc2N1S(=O)(=O)c1c(N)n(C)c(=O)n(C)c1=O (stereo not drawn) the results were gsp ag -9%[15.4 µM], gsp antag -1%, CtBP-E1A blk -2, D2 ag -4.9, D2 PAM 0 and Six1-Eya2 inh 0.
Screening CCOc1ccc(NC(=O)C(CC(=O)O)Cc2ccccc2)cc1 (stereo not drawn) returned gsp ag -5%[15.4 µM], gsp antag 0%, D2 ag 2.1, D2 PAM -7 and Six1-Eya2 inh 11.
Cc1ccc(C)c(N(CC(=O)NC2CCCCC2)C(=O)CNC(=O)c2ccco2)c1 was read as gsp ag 2%[15.4 µM], gsp antag -2%, CtBP-E1A blk 22, D2 ag -4.7, D2 PAM 11 and Six1-Eya2 inh 0.
`O=C(COC(=O)C1=COCCO1)NC(=O)c1ccc(OC(F)F)cc1` gave gsp ag -3%[15.4 µM], gsp antag 11%, CtBP-E1A blk 1, D2 ag 1.5, D2 PAM 3 and Six1-Eya2 inh 16.
CCCCCc1c(O)c2ccccc2[nH]c1=O was read as gsp ag -30%, gsp antag -1%, CtBP-E1A blk -1, D2 ag -5.4, D2 PAM -16 and Six1-Eya2 inh 4.
For CCCCN(CC)C(=O)c1ccccc1Oc1ccccc1 the results were gsp ag -45%[inhibitor], gsp antag 12%, CtBP-E1A blk 3, D2 ag 0.0, D2 PAM -14 and Six1-Eya2 inh 9.
For CCC(CC)NC(=O)c1cc(S(=O)(=O)N2CCCCC2)ccc1N1CCOCC1 the results were gsp ag 14%, gsp antag -3%, D2 ag -0.6, D2 PAM -3 and Six1-Eya2 inh 0.
Screening CCC(C(=O)Nc1ccccc1)c1ccccc1 (stereo not drawn) returned gsp ag 6%, gsp antag 14%, CtBP-E1A blk 10, D2 ag 1.5, D2 PAM -8 and Six1-Eya2 inh 6.
For CCOC(=O)C1CCCN(S(=O)(=O)c2ccc(S(=O)(=O)N3CCCC3)cc2)C1 (stereo not drawn) the results were gsp ag inconclusive, gsp antag -2%, CtBP-E1A blk 3, D2 ag 3.3, D2 PAM 1 and Six1-Eya2 inh 4.
Screening Cc1cc(NC(=O)CSc2nnc(-c3ccco3)o2)no1 returned gsp ag 15%, gsp antag 12%, CtBP-E1A blk -90*, D2 ag 3.2, D2 PAM 6 and Six1-Eya2 inh -74*.
CCOc1cc(C#N)ccc1OCC(=O)N1CCN(C(=O)c2cccs2)CC1 was read as gsp ag 1%, gsp antag 3%, CtBP-E1A blk 7, D2 ag -1.2, D2 PAM 1 and Six1-Eya2 inh -1.
O=S(=O)([N-]c1nc2ccccc2nc1-[n+]1ccccc1)c1ccc(Cl)cc1 was read as gsp ag -4%, gsp antag 8%, CtBP-E1A blk -3, D2 ag -4.6, D2 PAM -4 and Six1-Eya2 inh -12.
COc1ccccc1CNC(=O)c1ccc(OCC2CCCO2)cc1 (stereo not drawn) was read as gsp ag -2%, gsp antag 8%, CtBP-E1A blk -6, D2 ag 0.2, D2 PAM -2 and Six1-Eya2 inh 10.
CC(C(N)=O)N1c2cccc3cccc(c23)S1(=O)=O (stereo not drawn) was read as gsp ag -10%, gsp antag 9%, CtBP-E1A blk 2, D2 ag 0.8, D2 PAM 4 and Six1-Eya2 inh -5.
`CC(C)Cc1nnc(NC(=O)CSc2nc(O)c(Cc3ccccc3)c(=O)[nH]2)s1` gave gsp ag -9%[15.4 µM], CtBP-E1A blk -23, D2 ag 2.0, D2 PAM 7 and Six1-Eya2 inh -1.
Screening CCCCn1c(=N)n(CC(=O)O)c2ccccc21 returned gsp ag 9%[15.4 µM], gsp antag 9%, CtBP-E1A blk 0, D2 ag -0.2, D2 PAM -5 and Six1-Eya2 inh -3.
Screening Cc1ccc(S(=O)(=O)N(CC(=O)NCc2ccncc2)C2CCCCC2)cc1 returned gsp ag 4%, gsp antag -8%, CtBP-E1A blk 5, D2 ag -3.0, D2 PAM -2 and Six1-Eya2 inh -2.
CC[C@]12c3[nH]c4cc(CCC(=O)N(C)C)ccc4c3CCN1C(=O)[C@@H](CC(=O)NCCN1CCOCC1)C[C@@H]2C(=O)N1CCN(C(=O)c2ccco2)CC1 was read as gsp antag -2%, CtBP-E1A blk 0, D2 ag -3.1, D2 PAM -2 and Six1-Eya2 inh 4.
`NC(=S)N/N=C/c1ccc(-c2cc(Cl)c(Cl)cc2Cl)o1` gave gsp ag -30%[inhibitor], gsp antag 1%, CtBP-E1A blk -2, D2 ag -4.3, D2 PAM -8 and Six1-Eya2 inh -2.
CCNC(=O)/C(=C/c1ccc2c(c1)OCO2)NC(=O)c1ccc(Br)cc1 was read as gsp ag -7%, gsp antag 7%, CtBP-E1A blk 0, D2 ag -4.0, D2 PAM -7 and Six1-Eya2 inh -1.
Cc1ccc(CN2CCSc3ccc(C(=O)N4CCOCC4)cc32)cc1 was read as gsp ag inconclusive, gsp antag -8%, CtBP-E1A blk -11, D2 ag -4.2, D2 PAM -5 and Six1-Eya2 inh -10.
CCNc1nc(NC(C)C)nc(Nn2cnnc2)n1 was read as gsp ag -8%, gsp antag 4%, CtBP-E1A blk 4, D2 ag 0.9, D2 PAM 1 and Six1-Eya2 inh 1.
Screening O=C(Nc1cccc(S(=O)(=O)N2CCOCC2)c1)c1ccc(Cl)c([N+](=O)[O-])c1 returned gsp ag 5%, gsp antag inconclusive, CtBP-E1A blk inconclusive, D2 ag -0.9, D2 PAM 5 and Six1-Eya2 inh -19.
Screening CCOc1ccc(-c2[nH]ncc2Oc2ccccc2OC)c(O)c1 returned gsp ag 1%, gsp antag -9%, CtBP-E1A blk -4, D2 ag -0.2, D2 PAM -13 and Six1-Eya2 inh 0.
`Cc1ccc(C(=O)O)cc1N1C(=O)CCCC1=O` gave gsp ag 8%[15.4 µM], gsp antag 2%, CtBP-E1A blk -1, D2 ag -0.2, D2 PAM -3 and Six1-Eya2 inh -2.
Screening O=C(c1ccco1)N1CCN=C1SCc1cccc(Cl)c1 returned gsp ag 22%, gsp antag -6%, CtBP-E1A blk 4, D2 ag -6.6, D2 PAM -8 and Six1-Eya2 inh 0.
CC1CC(C)CN(C(=O)/C=C/c2ccc([N+](=O)[O-])s2)C1 (stereo not drawn) was read as gsp ag -19%, gsp antag -10%, D2 ag 8.4, D2 PAM inconclusive and Six1-Eya2 inh -7.
`COc1ccc(N2C(=NC(=O)CCC3CCCC3)SC3CS(=O)(=O)CC32)cc1` (stereo not drawn) gave gsp ag -2%, gsp antag 9%, D2 ag -1.2, D2 PAM -5 and Six1-Eya2 inh 2.
CCc1c(O)nc(SCC(=O)NC(C)(C)C)n(-c2ccccc2)c1=O was read as gsp ag -31%[inhibitor], gsp antag 8%, CtBP-E1A blk 4, D2 ag -2.6, D2 PAM -9 and Six1-Eya2 inh 5.
`O=c1cc(-c2ccccc2)nc2cc(-c3ccc(F)cc3)[nH]n12` gave gsp ag -22%[15.4 µM], gsp antag -9%, CtBP-E1A blk 3, D2 ag -5.8, D2 PAM -11 and Six1-Eya2 inh 1.
Screening CC(=O)Nc1ccc(OCC(O)Cn2nc(C)c(C(C)=O)c2C)cc1 (stereo not drawn) returned gsp ag -8%, gsp antag 1%, CtBP-E1A blk -2, D2 ag -1.1, D2 PAM -3 and Six1-Eya2 inh -2.
For COn1c(SCc2ccc(C)cc2C)nc2ccccc2c1=O the results were gsp ag 5%, gsp antag -26%, CtBP-E1A blk 9, D2 ag -0.8, D2 PAM -7 and Six1-Eya2 inh 5.
`Cc1ccc(NC(=O)COC(=O)CN2C(=O)c3ccccc3C2=O)cc1` gave gsp ag -68%[inhibitor], gsp antag -21%, CtBP-E1A blk 3, D2 ag -5.9, D2 PAM 0 and Six1-Eya2 inh 7.
Screening CCOC(=O)c1c(NC(=O)CCC(=O)O)sc2c1CCCCC2 returned gsp ag 14%, gsp antag -13%, CtBP-E1A blk 10, D2 ag 2.2, D2 PAM -15 and Six1-Eya2 inh 7.
c1ccc(-c2ccc3c(n2)CCCO3)cc1 was read as gsp ag 18%, gsp antag 4%, CtBP-E1A blk 8, D2 ag -0.7, D2 PAM -6 and Six1-Eya2 inh 9.
COc1cccc(C(=O)Nc2ccc(S(=O)(=O)Nc3onc(C)c3C)cc2)c1 was read as gsp ag 13%, gsp antag 12%, CtBP-E1A blk -1, D2 ag -0.3, D2 PAM 10 and Six1-Eya2 inh -3.
COc1ccc(Br)c2oc(SC)cc(=O)c12 was read as gsp antag 1%, CtBP-E1A blk inconclusive, D2 ag -1.6, D2 PAM -5 and Six1-Eya2 inh inconclusive.
Screening Cc1ccc(SCC(=O)Nc2ccc(F)cc2[N+](=O)[O-])cc1C returned gsp ag -16%[15.4 µM], gsp antag 1%, CtBP-E1A blk inconclusive, D2 ag -1.4, D2 PAM 7 and Six1-Eya2 inh inconclusive.
N[C@@H](Cc1ccc(F)cc1)C(=O)O was read as gsp antag 3%, CtBP-E1A blk 1, D2 ag -2.4, D2 PAM 2 and Six1-Eya2 inh 1.
O=C(c1ccccc1N1CCOCC1)N1CCCC(Nc2ccc(F)cc2)C1 (stereo not drawn) was read as gsp ag -3%, gsp antag 0%, D2 ag 2.9, D2 PAM -5 and Six1-Eya2 inh 0.
